Screens (PubChem BioAssay)
Calb FLC: C. albicans growth inhibition with fluconazole, primary screen, CaCi-2 strain, Alamar Blue fluorescence; C. albicans CaCi-2 (fluconazole-resistant clinical isolate) + fluconazole, 48 h; growth inhibition, % (test concentration not listed); hit rate 0.57% among 300,000; AID 1979, 2009;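 active = most replicates above 75%; inconclusive = exactly half above 75%; inactive = most below 75%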;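 note: all wells also contain fluconazole at 8 µg/ml as a sub-toxic cotreatment; 0% = median of DMSO wells and 100% = median of geldanamycin control wells; wells of about 8 µL received 7.5 nL stock; the first replicate is given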
Bfl-1 A1 inh: caspase 3/7 activation in MEF A1-2A-BIM cells, primary screen, A1 inhibitor project, cell-based, luminescence, HTS | caspase activation, % (no concentration beside the values) | Caspase-Glo 3/7 luminescence, 3 h; percent of clofoctol response, vehicle zero | AID 2462, 2010 | hit rate 0.066% among 330,000;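 active = over half of replicate activation scores above 10%, or exactly half above 10 with the replicate mean above 10; inconclusive = replicate mean below 10 yet half the replicates above 10; inactive = over half of replicates below 10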;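 note: wells of about 30 µL received 50 nL stock; many hits fall short of the cut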
LANA-H2A inh: blockers of LANA interaction with H2A/H2B – biochemical, FP readout, HTS, primary screen; cell-free LANA-H2A/H2B peptide, fluorescence polarization; AID 2629, 2010; inhibition, % (concentration not given with the values); hit rate 0.6% among 320,000; Protein LANA1 (Human herpesvirus 8 type P (isolate GK18)), Q9QR71; in the data active = inhibition mostly above about 10%, no sharp cut-off; inactive = mostly below about 6.7%;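 note: stock transfer was 7.5 nL into about 10 µL; 0% = median of vehicle wells and 100% = median of positive control wells; one replicate is shown; the record names a cut of 25% in any replicate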
Beta cell apopt: inhibitors of cytokine-induced beta cell apoptosis, primary screen, luminescence; protection from apoptosis, % (concentration not given with the values); INS-1E cytokine-induced death, ATP luminescence, 48 h; percent of positive-control rescue, neutral wells zero; hit rate 0.8% among 300,000; AID 435005, 2010;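 active = all replicates at 75% or more, or half of them and the mean; inconclusive = half reach 75% but not the mean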;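 note: 0% = cytokine-treated negative control wells and 100% = positive control rescue; higher means more ATP so stronger rescue from cytokine killing; wells of about 40 µL received 100 nL stock; the first replicate is given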
UCH37 DUB inh: inhibitors of human UCH37 deubiquitinase, primary screen, biochemical, Ub-AMC cleavage, fluorescence; Ubiquitin carboxyl-terminal hydrolase isozyme L5 (Homo sapiens), Q9Y5K5; purified proteasome/UCH37; inhibition, % (no concentration beside the values); hit rate 0.33% among 330,000;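 active = mean of two replicates above 20%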;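 note: 0% = compound-free wells with enzyme and 100% = wells lacking proteasome; stock transfer was 100 nL into about 20 µL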
Target sequence (Q9Y5K5 whole entry, looked up): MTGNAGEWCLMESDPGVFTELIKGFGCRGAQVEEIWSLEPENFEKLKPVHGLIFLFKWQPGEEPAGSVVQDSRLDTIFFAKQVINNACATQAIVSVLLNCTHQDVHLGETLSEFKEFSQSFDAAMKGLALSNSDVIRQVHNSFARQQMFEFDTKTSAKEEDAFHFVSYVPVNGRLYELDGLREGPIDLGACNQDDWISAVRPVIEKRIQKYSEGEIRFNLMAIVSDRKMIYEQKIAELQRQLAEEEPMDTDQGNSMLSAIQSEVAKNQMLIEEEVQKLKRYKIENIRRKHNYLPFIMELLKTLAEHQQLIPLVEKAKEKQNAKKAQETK
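Assay system: Proteasome-bound UCH37. Buffer or medium: pH 7.4 Tris-HCl (50 mM) with ovalbumin, ATP-MgCl2, DTT. Incubation: 30 min preincubation with enzyme, 25 min cleavage at room temperature. Measured by: fluorescence, ex 355 nm, em 460 nm. Read-out basis: percent inhibition. Control set: wells without proteasome as full block, compound-free enzyme plus substrate as uninhibited.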
Beta2AR agonist: beta2AR agonists driving receptor internalization, primary screen, cell-based, FAP fluorogen, flow cytometry; Beta-2 adrenergic receptor (Homo sapiens), P07550; Am2.2-beta2AR cells; reference of the scale not given here; response, % (no concentration beside the values); hit rate 0.43% among 340,000;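 active = response above a set limit, near 3 SD of response in nonfluorescent compounds, cut at about 42% in these data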;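 note: stock transfer was 100 nL into about 11 µL; a reference agonist was the positive control; negative values mostly stem from fluorescent compounds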
Target sequence (P07550 whole entry, looked up): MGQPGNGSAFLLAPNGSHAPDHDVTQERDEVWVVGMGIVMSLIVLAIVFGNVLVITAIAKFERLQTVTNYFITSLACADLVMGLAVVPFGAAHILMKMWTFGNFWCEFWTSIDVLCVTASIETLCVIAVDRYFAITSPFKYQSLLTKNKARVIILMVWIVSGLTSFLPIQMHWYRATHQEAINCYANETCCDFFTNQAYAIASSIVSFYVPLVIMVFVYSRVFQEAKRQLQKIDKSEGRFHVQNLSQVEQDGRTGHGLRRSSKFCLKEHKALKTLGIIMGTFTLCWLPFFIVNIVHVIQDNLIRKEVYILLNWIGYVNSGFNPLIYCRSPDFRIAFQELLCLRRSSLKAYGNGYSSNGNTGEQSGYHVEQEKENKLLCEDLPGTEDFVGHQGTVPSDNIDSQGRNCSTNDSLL
RanGTP-Impb inh: inhibitors of RanGTP-importin-beta interaction, primary screen, biochemical, FRET, CFP-Ran, YFP-importin-beta, homogeneous; cell-free CFP-Ran/YFP-importin-beta FRET ratio; hit rate 1.1% among 300,000; Ran GTPase (GTP-bound) - importin-beta complex; inhibition, % (concentration not given with the values);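 active = most replicates above 15%; inconclusive = exactly half above 15%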;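 note: 0% = DMSO wells and 100% = Ran loaded with GDP instead of GTP; wells of about 40 µL received 100 nL stock; the first replicate is given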
T cruzi inh: inhibitors of intracellular T. cruzi growth, primary screen, luminescence, NIH3T3 host cells; T. cruzi beta-gal in NIH3T3, 90 h; inhibition, % (concentration not given with the values); hit rate 1.4% among 300,000; AID 1885, 2009;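 active = mean inhibition across valid replicates above about 55%, limit read from the data; inconclusive = mean below that limit but half or more replicates reach it; inactive = mean below it, under half of replicates reach it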;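 note: signal also drops with host cell toxicity which is not excluded here; 0% = plate median of DMSO wells and 100% = zero luminescence signal; higher percent means less beta-gal luminescence so fewer parasites; stock transfer was 50 nL into about 50 µL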
* = called active by the depositor; i = inactive; ? = inconclusive; / = no result given.

SMILES | Calb FLC | Bfl-1 A1 inh | LANA-H2A inh | Beta cell apopt | UCH37 DUB inh | Beta2AR agonist | RanGTP-Impb inh | T cruzi inh
Cc1nc(NC(=S)Nc2ccccc2)sc1C | -6 | -2.6 | -3.1 | 14 | 1.3 | 3 | -1.3 | 7
Cc1nc(N2CCN(c3ccccn3)CC2)c2c(C)c(C(=O)Nc3ccccc3F)sc2n1 | -1 | -0.9 | 3.7 | 3 | -27 | 15 | 4.2 | 38
CCOC(=O)C1CCN(C(=O)c2cc3cc4ccc(OC)cc4nc3o2)CC1 | -3 | -1.3 | 1.7 | -3 | i | 7 | ? | 3
Cc1ccc(NC(=O)C2CC(=O)N(c3ccc4c(c3)OCCO4)C2)cc1S(=O)(=O)N1CCCCCC1 (stereo not given) | 3 | -0.2 | 6.5 | -3 | 0.2 | 7 | / | 13
NS(=O)(=O)c1ccc(NCc2ccccc2OCc2ccc(F)cc2)cc1 | 8 | 0.2 | -0.3 | -2 | 2.3 | 5 | -0.8 | /
CC1CC1c1ccc(/C=C(\C#N)C(=O)Nc2cccc(Cl)c2Cl)o1 (stereo not given) | -13 | 0.0 | 0.3 | 4 | -14 | 5 | 40* | 21
CC(C)C[C@H]1CN=C(Nc2ccccc2)N1CCC1CCCC1 | -36 | 0.4 | -1.4 | 25 | 1.3 | -1 | 2.6 | 16
CC(C)c1ccc(C2(C)NC(=O)N(CC(=O)N3CCN(C(=O)c4cccs4)CC3)C2=O)cc1 (stereo not given) | / | -0.1 | 8.3 | -6 | -0.1 | -8 | / | /
COc1cccc(OCCCn2cc(/C=C3/C(=N)N4C=C(C)SC4=NC3=O)c3ccccc32)c1 | -20 | -0.5 | -2.0 | 7 | -2.0 | -26 | -121 | 57*
O=[N+]([O-])c1ccc(CSc2nnc(-c3cccnc3)o2)cc1 | -6 | 1.0 | -2.3 | -6 | 1.5 | -5 | -3.9 | -18
COCCn1c(SCC(=O)NC2CCCCC2)nc2c(c1=O)SCC2 | -2 | -0.4 | 0.8 | 1 | 9.7 | -5 | -0.9 | 9
Cn1c(N2CCN(C(=O)NC34CC5CC(CC(C5)C3)C4)CC2)nc2ccccc21 | 23 | 0.4 | -2.7 | 3 | 0.5 | -4 | 9.6 | 4
O=C(CNCc1ccco1)Nc1cccc(S(=O)(=O)N2CCCCC2)c1 | -12 | 0.0 | 0.0 | -1 | -0.7 | 19 | 4.5 | 15
Cc1ccc2c(c1)NC(=O)C(CC(=O)NCCCN1CCCCC1C)O2 (stereo not given) | 8 | -0.2 | 2.7 | 3 | 3.1 | -1 | -0.8 | -9
COCCOc1ccc(C(F)(F)F)cc1NC(=O)COC(=O)C1=COCCO1 | 32 | 0.0 | 2.1 | 2 | 2.2 | -6 | 6.1 | -3
CNC(=S)N(CCc1c(C)[nH]c2ccc(Cl)cc12)Cc1cccnc1 | / | -0.7 | -3.7 | -2 | 1.7 | -2 | 2.0 | 41
CC(C)c1ccc(C(=O)NCc2ccc(Cl)cc2)cc1 | 0 | 0.1 | -2.1 | -5 | 4.9 | -13 | -2.9 | -6
Cc1cccnc1NC(=O)Nc1cccc(Cl)c1 | -11 | -4.2 | -3.0 | -3 | 1.5 | 2 | 0.4 | -33
COC(=O)c1ccc(NC(=O)c2cccc(C)c2[N+](=O)[O-])cc1 | -17 | 0.2 | 2.3 | -4 | 5.1 | 8 | 0.6 | -4
Clc1cccc(Sc2ccc(-c3ccccn3)s2)c1 | -2 | -1.0 | 2.9 | 4 | -10 | -5 | -7.2 | 13
O=C(NCCOc1ccc(F)cc1)C1CCN(S(=O)(=O)c2ccccc2)CC1 | 4 | -0.1 | -5.8 | / | 1.6 | 3 | -0.1 | -2
C[C@@H](OC(=O)N(C)Cc1ccccc1)[C@H]1O[C@]2(C)CCCC[C@H]1O2 | / | -0.4 | 1.5 | -2 | 30* | 1 | / | /
Cc1ccc(C(C)NC(=O)c2c(-c3ccccc3)noc2C)cc1C (stereo not given) | -1 | -0.4 | 4.1 | -8 | 4.1 | 3 | 3.1 | 1
Cn1c(=O)n(CC(=O)NC2CCCCC2)c(=O)c2ccccc21 | -10 | -0.3 | -6.0 | -2 | 0.7 | -13 | 1.2 | -2
FC(F)Oc1ccccc1NC(=S)Nc1cccnc1 | -10 | 0.8 | 0.7 | -7 | 1.8 | -4 | -2.7 | -2
COc1cccc(CNC(=O)CCS(=O)(=O)c2ccc3c(c2)oc(=O)n3C)c1 | -4 | 0.3 | -3.9 | -4 | 1.6 | 2 | 3.4 | -2
Cc1ccc(C(=O)O)cc1NC(=O)Nc1cccc2ccccc12 | 11 | -0.1 | -0.9 | -2 | 0.3 | 6 | 6.8 | -21
Cc1onc(-c2c(Cl)cccc2Cl)c1C(=O)NC(=S)Nc1sc2c(c1C(N)=O)CCC(C)C2 (stereo not given) | -1 | 0.3 | -2.3 | -4 | / | 12 | 5.0 | -6
C=CCn1c(C(C)C)nc2ccccc21 | 16 | 0.4 | -8.5 | -4 | -0.5 | -3 | 2.1 | -11
CCOCCCNC(=O)c1ccc2c(c1)ncn2-c1ccc(CC)cc1 | 15 | 0.6 | 3.1 | -1 | 4.5 | 1 | 0.2 | 11
CC(=O)N1N=C(c2ccc(C)cc2)OC1c1ccc(C)cc1 (stereo not given) | -8 | -0.1 | 1.6 | -2 | 4.7 | 1 | 6.1 | 5
O=C(Nc1cc(Br)ccc1O)c1cc(-c2ccco2)on1 | -7 | 0.4 | -0.7 | -6 | 3.2 | 9 | -4.7 | 4
CCCCc1ccc(NC(=O)CSCc2cc(=O)[nH][nH]2)cc1 | -11 | -0.2 | -0.1 | -2 | 0.3 | -2 | -2.8 | 1
Cc1ccc(C2C(C(=O)c3cc4ccccc4o3)=C(O)C(=O)N2c2cc(C)on2)cc1 (stereo not given) | 25 | -0.5 | 0.8 | -2 | / | 3 | 9.9 | -15
O=C(Nc1nc(-c2ccccc2)cs1)c1cccc(S(=O)(=O)N2CCN(Cc3ccccc3)CC2)c1 | -13 | 0.7 | -3.7 | 10 | -20 | 6 | -0.8 | 39
COCCNc1cc(C)nc2c(-c3ccccc3OC)c(C)nn12 | 7 | 0.5 | 0.2 | -3 | 7.0 | 9 | -0.7 | 13
CN1C(=O)C(C)(C)c2cc(S(=O)(=O)N3CCN(c4ccccc4F)CC3)ccc21 | 4 | -1.1 | -2.1 | -3 | 3.0 | 17 | 3.4 | -6
CCN1CCN(c2ccc(S(=O)(=O)N3CCCCC3)cc2NC(=O)Cc2ccc(OC)cc2)CC1 | -3 | 0.6 | -0.5 | 1 | / | -4 | 5.8 | 52
CCCc1cc(=O)[nH]c(/N=C(/NC(=O)c2ccccc2)Nc2ccc3c(c2)OCCO3)n1 | -3 | 0.1 | -3.3 | -2 | / | / | -3.3 | 7
Cc1cc(/C=C(\C#N)C(=O)NCc2cccs2)c(C)[nH]1 | 21 | 0.5 | -8.8 | 0 | -144 | -1 | 7.2 | -4
CCn1nc(C)c(Br)c1-c1nc(CS(=O)(=O)c2ccsc2)no1 | -2 | 2.1 | -2.6 | -5 | 0.3 | 5 | -4.2 | 7
O=C1COc2ccc(C(=O)COC(=O)c3cnc(Cl)c(Cl)c3)cc2N1 | -1 | 0.2 | 4.2 | 0 | 3.1 | 1 | 0.5 | -2
Cc1cc(C)cc(NC(=O)C2CC3CCC2C3)c1 (stereo not given) | -11 | -1.3 | 1.8 | -1 | 2.6 | -7 | -2.9 | 12
O=C(NCc1ccccc1)c1ccc(Cl)c(S(=O)(=O)N2CCCC2)c1 | / | 0.4 | 2.8 | -2 | 1.1 | 4 | / | /
O=C(Nc1cc2c3c(c1)CC(=O)N3CCC2)c1ccc(Br)o1 | 4 | -0.1 | 4.9 | -1 | 3.1 | -2 | -3.5 | -9
CCOc1ccc(NC(=O)CSc2nnc(Cn3cnc4ccccc43)n2C)cc1 | 5 | 0.1 | 1.3 | 0 | -2.4 | 1 | -2.3 | -3
COCCN(CC(=O)NCC1CCCO1)C(=O)CCC(=O)Nc1ccccn1 (stereo not given) | -1 | -0.3 | 3.7 | -3 | 2.8 | -9 | 1.4 | 0
O=C(NCCN1CCOCC1)C(=O)NCc1ccc2c(c1)OCO2 | 2 | 1.5 | 0.7 | / | 2.0 | 1 | -5.5 | -5
CCOC(=O)Nc1c(C(=O)OC)[nH]c2cc(OC)ccc12 | -8 | 0.9 | -2.9 | 4 | 2.5 | -5 | 3.2 | -6
CCC(C(=O)O)N1C(=O)/C(=C/C(C)=C/c2ccccc2)SC1=S (stereo not given) | 11 | 1.0 | 0.1 | -3 | 12 | 5 | -0.9 | -9

Following part
SMILES | Calb FLC | Bfl-1 A1 inh | LANA-H2A inh | Beta cell apopt | UCH37 DUB inh | Beta2AR agonist | RanGTP-Impb inh | T cruzi inh
COc1ccc(CCC(=O)NCc2cccc(C(F)(F)F)c2)cc1 | -1 | 0.2 | -6.1 | -4 | 1.3 | -9 | -1.6 | 4
Cc1nonc1CN(C)C(=O)c1ccc(OC2CCN(C(=O)c3cccnc3)CC2)cc1 | -4 | 0.0 | -18 | 5 | 0.3 | -6 | 0.8 | -8
O=C(COC(=O)c1cc[n+]([O-])cc1)Nc1ccc(Cl)cc1C(F)(F)F | / | -0.2 | -2.4 | -4 | -0.6 | -6 | -3.2 | 8
Cc1c(C)c2ccc(Oc3ccc([N+](=O)[O-])cc3C(F)(F)F)c(C)c2oc1=O | 0 | -0.7 | 1.6 | 2 | 2.1 | 4 | -2.0 | 31
c1csc(-c2nnc(-c3ccc(N4CCOCC4)cc3)o2)c1 | 1 | -1.3 | 5.6 | -1 | -80 | -10 | -1.1 | 2
COc1ccc(NC(=O)CSc2nnc(-c3ccccn3)n2N)cc1Cl | 6 | -0.7 | -3.7 | -3 | -3.6 | -6 | 7.7 | -1
Cc1cc(C(=O)CSc2nnc(-c3ccc(F)cc3)o2)c(C)n1CC1COc2ccccc2O1 (stereo not given) | 3 | 0.0 | -14 | -2 | 5.6 | 2 | 3.0 | 20
Cc1ccc(S(=O)(=O)Nc2nc(C)c(C)s2)cc1 | -12 | 0.4 | 0.4 | -10 | 2.6 | -4 | 2.1 | 4
CCOC(=O)c1ccc(NC(=O)CCNS(=O)(=O)c2cccs2)cc1 | -7 | -0.4 | 4.4 | 2 | 1.5 | -1 | 1.3 | -16
CCN(C[C@H]1N[C@@](Cc2ccccc2)(C(=O)OC)[C@H]2C(=O)N(Cc3ccccc3)C(=O)[C@@H]12)C(=O)Nc1ccc(C(F)(F)F)cc1 | / | 0.6 | -230 | 53 | 4.1 | 5 | / | /
